# Source: PubChem (National Center for Advancing Translational Sciences (NCATS))
# VACV mCherry inh: vaccinia inhibition (mCherry reporter). Vaccinia virus mCherry reporter infection, fluorescence; about a quarter of the inactives have no number. Potency, µM (highest dose often 36.5 µM), for the others: top-dose activity change, negative = inhibition, most hits filed as inhibitors. actives 0.63% (n = 310,000); active = well fitted inhibition curve with a large enough effect; inconclusive = small, poorly fitted or top-dose-only effect; inactive = no such curve, though single readings can be large or run the other way; tested in A549 cells; further: nearly all actives have a fitted effect of over 35% in size; inactives centre near -10
# Vaccinia Venus: inhibitors of vaccinia virus (Venus reporter); AID 720580; actives 0.46% (n = 330,000); Potency, µM (highest dose often 36.5 µM), inactives show top-dose activity change, negative = inhibition, hits mostly inhibitors; Vaccinia virus Venus reporter expression, fluorescence; active means well fitted inhibition curve with a large enough effect; inconclusive means small, poorly fitted or top-dose-only effect; inactive means no such curve, though single readings can be large or run the other way; tested in A549 cells; further: nearly all actives have a fitted effect of over 30% in size; inactives centre near -10
# Starred values were filed as active, the others as inactive; i = inactive; ? = inconclusive; · = no result given; [ ] = another dose, or the depositor's remark. On the % scale 0 is the no-effect control and ±100 the full control effect; potency means the concentration at half of the fitted maximal effect.
# Value order: VACV mCherry inh | Vaccinia Venus
CCCC1(C(=O)OCC)NC(c2ccc(O)cc2)C2C(=O)N(c3cccc(C(C)=O)c3)C(=O)C21 (centres undefined)
  -10% | -22%
c1ccc2c(c1)nc(N1CCOCC1)c1ccccc12
  i | -12%
CCCc1cc(=O)[nH]c(SCC(=O)N2CCCc3ccccc32)n1
  -17% | -7%
O=c1c2c(nc3n1CCCCC3)-c1ccccc1CC21CCCC1
  -19% | -8%
CN1C(=O)S/C(=C/c2ccc(OCc3cccc(C(=O)O)c3)cc2)C1=O
  i | -3%
CCN(C[C@H]1N[C@@](Cc2ccccc2)(C(=O)OC)[C@H]2C(=O)N(Cc3ccccc3)C(=O)[C@@H]12)S(=O)(=O)c1ccc(C(C)(C)C)cc1
  i | 0%
O=C(O)CSc1cc(NS(=O)(=O)c2cccc([N+](=O)[O-])c2)c2ccccc2c1O
  10µM* | ?
CCc1nc2ccccc2n1CCCCOc1ccc(C)cc1
  -9% | -6%
Nn1c(SCC(=O)NCCCc2ccccc2)nnc1-c1cccnc1
  -14% | -5%
CC(C)(C)c1ccc(C(=O)/C=C2\NC(=O)CS2)cc1
  · | -15%
Cc1ccc(COc2ccc3c(c2)OCO3)cc1
  -9% | 12%
S=C(NC1CCCC1)N1CCN(c2ccccn2)CC1
  -12% | -15%
C=CCN1CC[C@]23c4c5ccc(O)c4O[C@H]2/C(=N/NC(=O)c2ccccc2)CC[C@@]3(O)[C@H]1C5
  i | -8%
O=C(NCC(F)(F)F)c1ccc(S(=O)(=O)NCCc2ccc3c(c2)OCCO3)cc1
  -24% | ?
C(=C\c1ccnc2ccccc12)/c1ccc(-[n+]2cc[n+](-c3ccc(/C=C/c4ccnc5ccccc45)cc3)cc2)cc1
  -14% | -3%
COc1ccc(Cn2c(CCC(=O)NCc3cccc(Cl)c3)nc3cccnc32)cc1
  -15% | -8%[7.34 µM]
CC1CCc2c(nc3nc[nH]n3c2=O)C1 (centres undefined)
  · | -23%
COC(=O)c1cc(OC)c(OC)cc1NC(=O)c1cccc(OC)c1OC
  i | -5%
COc1cc(C(C(=O)NC2CCCC2)N(C(=O)c2snc(C(N)=O)c2N)c2ccccc2)cc(OC)c1OC (centres undefined)
  i | -15%
Cn1cc(CNC(=O)CC2C(=O)NCCN2CC(C)(C)C)cn1 (centres undefined)
  -13% | 2%

# Arranged by heavy-atom count (falling): 3 of the compounds above.
# Value order: VACV mCherry inh | Vaccinia Venus
CN1C(=O)S/C(=C/c2ccc(OCc3cccc(C(=O)O)c3)cc2)C1=O
  i | -3%
S=C(NC1CCCC1)N1CCN(c2ccccn2)CC1
  -12% | -15%
CC(C)(C)c1ccc(C(=O)/C=C2\NC(=O)CS2)cc1
  · | -15%

# Continuation.
# Value order: VACV mCherry inh | Vaccinia Venus
CC(C)c1ccc(S(=O)(=O)N2CCN(C(C)C(=O)Nc3ccccc3-c3ccccc3)CC2)cc1 (centres undefined)
  -23% | -9%
C=CCc1c(C)nc(SCc2ccccc2)[nH]c1=O
  -9% | -19%
COc1cc(C(C(=O)NC2CCCC2)N(C(=O)Cc2cccs2)C2CC2)cc(OC)c1OC (centres undefined)
  -8% | 1%
CCn1nc(C)cc1C(=O)N1CCCC(C(=O)c2cccc(OC)c2)C1 (centres undefined)
  i | -13%
CS(=O)(=O)N(CC(=O)Nc1ccc2c(c1)OCCO2)c1ccc2c(c1)OCO2
  · | ?
O=C(CCCCCCCCC(=O)N1CCCCC1)N1CCCCC1
  i | -12%
Cc1c(C(=O)N2CCCCC2)oc2ccccc12
  -7% | -16%
CC1(C)OC(=CC=Nc2ccc(Cl)cc2)OC1(C)C
  -29% | -15%
CCN(CC(=O)Nc1c(F)cccc1F)C(=O)c1ccc(N2CCOCC2)c([N+](=O)[O-])c1
  -16% | -3%
CC1CCC2C(C)C(=O)OC3OC4(C)CCC1C32OO4 (centres undefined)
  -15% | -4%
COc1ccc(Oc2c(O)c3ccccc3n(C)c2=O)cc1
  i | -14%
O=S(=O)(Nc1ccc(N2CCOCC2)cc1)c1cccs1
  -24% | -11%
CCc1ccccc1NC(=O)c1nn(-c2ccc(C)cc2)c(=O)c2c1c1ccccc1n2C
  -6% | 1%
CCc1c(C)nc2nncn2c1NCc1ccccc1
  -15% | -13%
O=C(COc1ccc(Cl)cc1Br)NC(=O)NCc1ccccc1
  -3% | -7%
CCN1N=C(c2ccccc2)Cn2c1nc1ccccc12
  · | -20%
C=CCC1(/C=N/O)CCOC(C)(C)C1 (centres undefined)
  -3%[7.34 µM] | -10%[7.34 µM]
CCO[C@H]1OC(C(=O)O)=C[C@@H](c2csc3ccccc23)[C@@H]1CCCO
  i | -2%
COc1ccc(C)cc1NC(=O)NC1CCCc2ccccc21 (centres undefined)
  ? | ?
COCCNC(=O)CN(Cc1ccc(OC)cc1)C(=O)CCC(=O)Nc1nccs1
  -22% | -16%

# The list continues:
# Value order: VACV mCherry inh | Vaccinia Venus
Cc1ccc(C(=O)N2CCN(c3ccccc3)CC2)cc1C
  ? | -15%
CCOCc1nnc(NC(=O)c2cc(OC)c(OC)cc2[N+](=O)[O-])s1
  -4% | -11%
O=C(CSc1ncccn1)Nc1cccc(S(=O)(=O)N2CCOCC2)c1
  i | -10%
CCOC(=O)c1ccc(NC(=S)Nc2ccc(Br)cc2N)cc1
  -27% | ?
COCCCNC(=O)c1sc2nc(C)c(C(=O)Nc3ccc(C)cc3C)c(-c3ccccc3Cl)c2c1N
  10% | -1%
CN(Cc1ccccc1)C(=O)c1ccc(NC2=NC3CS(=O)(=O)CC3S2)cc1 (centres undefined)
  i | 0%
COc1ccc(-c2cnnc(N/N=C/c3ccc(C)o3)n2)cc1
  7% | 3%
COC(=O)c1cc(OC)c(OC)cc1NC(=O)c1csc(C)c1
  -14% | -11%
COc1ccc(Cl)cc1NC(=O)C1Cc2cc(S(=O)(=O)N3CCCC3)ccc2N1C(C)=O (centres undefined)
  i | -22%
O=C(N/N=C/c1ccc(O)cc1)c1cc(C2CC2)[nH]n1
  i | -9%
CCOc1ccc(CCNC(=O)CSc2n[nH]c(N)n2)cc1OCC
  i | -8%
Cc1cccc(C)c1NC(=O)CSC(=S)N1CCCC1
  i | -3%
Cc1cc(C)c(C#N)c(=N)o1
  -15% | -10%
O=C(Cc1ccc([N+](=O)[O-])cc1)Nc1cccc(C(=O)N2CCCCC2)c1
  ? | -27%
Cc1ccc(-c2cc(C(=O)NCCCn3ccnc3)c3cc(Br)ccc3n2)o1
  · | ?
N#CC(c1ccccc1)c1cccc(Cl)n1 (centres undefined)
  -2% | 4%
CCNc1c([N+](=O)[O-])c(=O)n(CC)c2ccccc12
  i | -18%
N#Cc1c(NCCO)nc(NCc2ccccc2)c2c1CCN(Cc1ccccc1)C2
  · | -4%
Cn1c(NC(=O)CC2CCCCC2)cc(=O)n(C)c1=O
  -18% | -1%
CCCCc1nnc(NC(=O)C2=COCCO2)s1
  -15% | -2%

# Next section; the last three above are carried over.
# Value order: VACV mCherry inh | Vaccinia Venus
N#Cc1c(NCCO)nc(NCc2ccccc2)c2c1CCN(Cc1ccccc1)C2
  · | -4%
Cn1c(NC(=O)CC2CCCCC2)cc(=O)n(C)c1=O
  -18% | -1%
CCCCc1nnc(NC(=O)C2=COCCO2)s1
  -15% | -2%
CC(C)N1CCN(Cc2cccn2-c2cccnc2)CC1CCO (centres undefined)
  ? | 4%
CC(=O)Nc1ccc(S(=O)(=O)NNC(=O)c2cc3c4ccccc4n(C)c3s2)cc1
  -3% | -1%
CCOc1ccc(S(=O)(=O)N/N=C(\C)c2ccc(Cl)c(Cl)c2Cl)cc1
  i | -7%
COc1ccc(-c2oc(=O)c3cc(OC)c(OC)cc3c2C(F)(F)F)cc1
  ? | -14%
Cc1ccc2c(c1C)OC(=O)CC2c1ccccc1 (centres undefined)
  -1% | -6%
Cc1cc(C)n2nc(C(=O)Nc3cccnc3)nc2n1
  · | -19%
CC(C)c1ccc(NC(=O)c2ccc3c(c2)CCCN3S(C)(=O)=O)cc1
  ? | ?
Cc1sc(NC(=O)C2C3CCC(O3)C2C(=O)O)nc1-c1ccc(CC(C)C)cc1 (centres undefined)
  ? | ?
CN1C(=S)SC(C)(C)C1/[N+]([O-])=C/c1cccnc1 (centres undefined)
  -15% | -12%
CC(C)C(=O)Nc1cccc(-c2cn3ccccc3n2)c1
  -12% | -9%
CN(C)CCCNC(=O)c1ccc(-c2cc3nc(NCc4cccnc4)n(C)c(=O)c3s2)cc1
  i | -13%
COc1cc(C)c(CN2CCOc3ccc(C(O)c4cccnc4)cc3C2)cc1C (centres undefined)
  -9% | -4%
COc1ccc(Nc2c3c(nc4nncn24)CCC3)cc1Cl
  i | ?
Cc1cc(C)cc(-n2ccn3cnnc3c2=O)c1
  -9% | 3%
Cc1cc(NC(=O)c2ccccc2NS(=O)(=O)c2c(C)c(C)cc(C)c2C)no1
  -22% | -9%
CC(Oc1ccc(Cl)cc1)c1ccc(C#N)c(=O)[nH]1 (centres undefined)
  ? | -6%
Cc1c(C(=O)N(C)C(C)c2ccccn2)oc2c(F)cccc12 (centres undefined)
  -13% | -19%
CCOC(=O)N1CCN(C(=O)Cc2cccs2)CC1
  · | -16%
COCCNC(=O)C1(C)CCN(C(=O)c2cc(C(C)(C)C)nn2C)C1 (centres undefined)
  8% | -4%
CC(=O)c1ccc(CCCc2ccc(C(C)=O)cc2)cc1
  -21% | -7%

# Continuation.
# Value order: VACV mCherry inh | Vaccinia Venus
Cc1cc2c(c(C#N)c1C)NC=NC2C (centres undefined)
  -4% | -13%
Cc1cc(-c2ccc(C(C)C)c(S(=O)(=O)N3CC(=O)Nc4ccccc43)c2)on1
  -29% | ?
Cc1cccc(S(=O)(=O)NC(=O)C2(C)CCN2C(=O)c2ccc(C3CCCCC3)cc2)c1 (centres undefined)
  8% | 14%
CCNC(=O)C1CCCc2c1[nH]c1ccc(Cl)cc21 (centres undefined)
  -16% | -12%
Cc1ccc(C)c(S(=O)(=O)N2CCN(C(C(=O)Nc3ccc(F)cc3)c3ccccc3)CC2)c1 (centres undefined)
  -13% | -16%
Cc1ccc2nc(Cl)c3nnnn3c2c1
  i | -2%
O=C(COc1cccnc1[N+](=O)[O-])N1CCC(Cc2ccccc2)CC1
  i | 0%
Cn1c(=O)c2[nH]c(CN3CCN(Cc4ccccc4)CC3)nc2n(C)c1=O
  · | -10%
CCOc1cc(CNC(=O)C2CCN(c3nc4ccccc4[nH]3)CC2)cc(OCC)c1OCC
  -13% | -10%
COc1ccc(Nc2nc3ccccc3nc2NS(=O)(=O)c2ccc(NC(C)=O)cc2)cc1
  -11% | 4%
Cc1nc2cnccc2n1C
  i | -22%
CCOC(=O)Nc1oc2ccccc2c(=O)c1CN1CCOCC1
  · | -20%
O=c1[nH]c(C2CCCN(S(=O)(=O)c3ccccc3F)C2)nc2c1nnn2Cc1ccccc1Cl (centres undefined)
  ? | -15%
O=c1[nH]c(SCc2cccc(Cl)c2)nc2c1CCCC2
  -5% | -17%
Cc1ccc(O)c(N=NC2=C(O)CC(C)(C)CC2=O)c1
  ? | ?
COc1ccc(C(=O)NCC(=O)N=Nc2c(O)n(Cc3ccccc3)c3ccccc23)cc1OC
  i | -2%
CCn1cnc2c1c(=O)n(Cc1ccc(C(=O)OC)cc1)c(=O)n2Cc1ccccc1
  -18% | -7%
O=c1[nH]c2ccc(Br)cc2o1
  i | 4%
C(=C\c1ccnc2ccccc12)/c1ccc2ccccc2n1
  ? | ?
CC(C)c1ccc(/C=C/C(=O)Nc2ccc(CN3CCOCC3)cc2)cc1
  i | -22%

# New compounds follow:
# Value order: VACV mCherry inh | Vaccinia Venus
O=C(N/C(=C/c1cccnc1)C(=O)N1CCCCCC1)c1ccccc1
  8% | 2%
CC12CCC(=O)N1C(C(=O)Nc1ccccc1F)CS2 (centres undefined)
  i | -11%
CCOC(=O)N1CC(C)N(CC(O)CN2CCOCC2)CC1C (centres undefined)
  -13% | -1%
Cc1ccc(CN(C(=O)COc2cccc([N+](=O)[O-])c2)c2ccccn2)o1
  -7% | 10%
CN(C)c1ccc(NC(=O)Nc2ccc3c(c2)nnn3C)cc1
  -4% | -16%
COc1ccc(CC(=O)N[C@@H]2c3cc(OC)c(OC)cc3C[C@H]2OCc2ccccc2)cc1
  -9% | 12%
CCOC(=O)N1CCc2c(sc3c2C(=O)NC(c2ccccc2F)N3)C1 (centres undefined)
  -26% | -26%
O=C(NCCc1ccccc1)C1CC(c2ccccc2O)=NO1 (centres undefined)
  -10% | -3%
O=C(C(c1ccccc1)C(O)c1ccccc1)N1CCOCC1 (centres undefined)
  i | -2%
O=C1NC(=O)C(CCc2ccncc2)(CCc2ccncc2)C(=O)N1CCc1ccc(F)cc1
  i | 2%
Cc1[nH]nc(NNC(=O)c2ccccc2)c1[N+](=O)[O-]
  -4% | -6%
Cc1cccc(-c2cc3nc(C)cc(N4CC(C)CC(C)C4)n3n2)c1 (centres undefined)
  · | 10%
O=C(c1cc(Sc2cccc(Cl)c2)nc2ccccc12)N1CCN(c2ccccn2)CC1
  i | ?
Cc1ccc(/C(O)=C2\C(=O)C(=O)N(C)C2c2ccccc2)cc1 (centres undefined)
  i | -8%
CC1CCN(c2ccc(/C=N/n3nnnc3N)cc2[N+](=O)[O-])CC1
  -9% | -11%
COC(=O)N/N=C/c1cc(Cl)cc(Cl)c1OCc1ccccc1F
  -6% | -8%
COc1ccc(CCN=C(N)NS(=O)(=O)c2ccc3ccccc3c2)cc1
  -25% | -23%
